gsp antagonist = antagonists of gsp mutant (McCune-Albright syndrome); gsp-mutant cells, cAMP HTRF, 30 min; control for the full effect not named in the record; actives 0.4% (n = 340,000); Potency, µM (top dose mostly 76.9 µM), inactives show top-dose activity change, negative = inhibition, most hits filed as inhibitors; active = falling curve of any shape with a large fitted effect; inconclusive = falling curve, mostly with a smaller effect; inactive = flat or rising curve; cell line not stated here;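 note: intracellular cAMP measured with PDE inhibitor Ro 20-1724 present during compound exposure; potency is the fitted concentration of half-maximal effect; % is set by controls: 0 for no effect and ±100 for the full control effect; nearly all actives have a fitted effect of over 65% in size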
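Cells in G418 medium, seeded 16-24 h, 37C; buffer exchange to DPBS + 1 mM CaCl2, 0.5 mM MgCl2, 0.05% BSA; cpds in DMSO + […] (300 uM stock), 30 min 37C; HTRF cAMP detection.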
D2 PAM = positive allosteric modulators of human D2 dopamine receptor; DiscoveRx D2 beta-arrestin cells, luminescence, 90 min; 100% = 57 uM dopamine signal; potentiation, % (concentration not given with the values); actives 0.23% (n = 360,000); AID 624464; active = potentiation of 50% or more; inconclusive = 30% to 50%; inactive = 30% or less;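 note: compound concentration not given in the record; tested on top of an EC20 dose of dopamine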
Target sequence (P14416 whole entry, looked up): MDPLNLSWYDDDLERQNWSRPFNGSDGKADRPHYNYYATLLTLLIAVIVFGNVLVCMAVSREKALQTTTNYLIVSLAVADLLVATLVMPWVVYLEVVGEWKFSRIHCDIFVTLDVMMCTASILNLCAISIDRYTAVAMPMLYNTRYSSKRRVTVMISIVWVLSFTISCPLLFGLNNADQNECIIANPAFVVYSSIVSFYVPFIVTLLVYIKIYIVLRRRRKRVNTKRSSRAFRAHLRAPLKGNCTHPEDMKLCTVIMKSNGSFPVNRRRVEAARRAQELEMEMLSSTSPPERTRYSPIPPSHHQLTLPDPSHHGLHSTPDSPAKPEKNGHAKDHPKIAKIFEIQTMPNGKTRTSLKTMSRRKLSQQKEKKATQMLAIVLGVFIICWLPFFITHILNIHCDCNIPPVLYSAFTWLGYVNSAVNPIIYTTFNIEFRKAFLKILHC
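PathHunter D2 cells, attached overnight at 37 deg C, received compound in DMSO plus dopamine at EC20 (50 nM final) for 90 min at 37 deg C. Beta-arrestin recruitment was read as luminescence after 1 h with detection reagent at ambient temperature.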
Six1-Eya2 inh = inhibitors of human Six1/Eya2 interaction; Q15475+O00167; AlphaScreen GST-Six1/His-Eya2 binding, biochemical; active compounds read low; control for the full effect not named in the record; activity change, % (test concentration not listed); actives 0.56% (n = 360,000); AID 651725; in the data active = activity change below about -65%; inconclusive = about -30% to -65%; inactive = above about -30%; note: % is set by controls: 0 for no effect and ±100 for the full control effect
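AlphaScreen with GST-Six1 and His-Eya2 (5X mix: 250 nM and 500 nM), glutathione donor and nickel acceptor beads; buffer 50 mM Tris pH 8.0, 300 mM NaCl, 1 mM TCEP; 1 h at 37 C in the dark.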
CtBP-E1A inh = CtBP/E1A binding inhibition. actives 0.49% (n = 340,000). activity change, % (test concentration not listed). AlphaScreen GST-E1A/His-CtBP binding, 1536-well; active compounds read low; control for the full effect not named in the record; in the data active means activity change below about -65%; inconclusive means about -30% to -65%; inactive means above about -30%; note: % is set by controls: 0 for no effect and ±100 for the full control effect
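Steps: dispense buffer (Tris pH 8.0, NaCl 300 mM, TCEP 1 mM, BSA, Tween 20); add 5X protein mix (GST-E1A, His-CtBP, 125 nM each); pin 23 nL compound; 2 h at 37 °C, dark; add 5X beads (50 ug/mL); 1 h; read.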
gsp ag = agonists of gsp mutant (McCune-Albright syndrome) | gsp mutant cells, cAMP HTRF, 30 min; control for the full effect not named in the record | Potency, µM (series often up to 76.9 µM), inactives show at the highest dose activation (cAMP increase), most hits filed as activators | actives 0.13% (n = 340,000); active = well fitted activation curve with a large enough effect; inconclusive = small, poorly fitted or top-dose-only effect, or another doubt; inactive = no such curve, though single readings can be large or run the other way; cell line not stated here;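 note: phosphodiesterase inhibitor Ro 20-1724 added with compounds to block cAMP breakdown; potency is the fitted concentration of half-maximal effect; nearly all actives have a fitted effect of over 60% in size; about a fifth of the inactives were tested at one dose only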
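Cells stably selected in G418 were plated at 2000/well, grown 16-24 hr, then given compounds in DMSO with the PDE inhibitor […] (300 uM solution added) for 30 min at 37C; cAMP was read by HTRF.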
D2 ag = agonists of human D2 dopamine receptor (beta-arrestin). DiscoveRx PathHunter D2 beta-arrestin, luminescence, 90 min; 100% = 57 uM dopamine signal. activation, % (no concentration beside the values). actives 0.084% (n = 360,000). AID 624465; in the data active = activation above about 40%; inconclusive = about 15% to 40%; inactive = below about 15%; note: compound concentration not given in the record; the text of the record calls up to 30% inactive
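Agonist mode: compounds alone added to overnight-plated D2 PathHunter cells for 90 min at 37 C, with 57 uM final dopamine (EC100) defining full response. Beta-arrestin recruitment detected by chemiluminescent reagent, read after 1 h at ambient temperature.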
* = called active by the depositor; ? = inconclusive; · = not tested or not shown; [ ] = dose if it differs, or a comment.

Every second line gives: gsp antagonist	D2 PAM	Six1-Eya2 inh	CtBP-E1A inh	gsp ag	D2 ag
> CSc1nc2ccc(NC(=O)C3CC(=O)N(Cc4ccco4)C3)cc2s1 (stereo not given)
 : -1%	-5	?	?	11%	-2.9
> Cc1ccc(-n2[nH]c(C)c(C=Nc3ccc(C)cn3)c2=O)cc1
 : -5%	-22	-4	4	-16%	2.0
> NC(=O)COc1ccc(/C=N\NC(=O)c2ccc(-c3ccccc3)cc2)cc1
 : 4%	-12	8	-2	5%[15.4 µM]	-2.8
> COc1cccc(CN(C)C(=O)c2cc(S(=O)(=O)N3CCN(c4ccccc4)CC3)ccc2Cl)c1
 : -14%	-10	-16	-6	-14%	-1.2
> CC1CN(C(=O)c2nn(C)cc2[N+](=O)[O-])CC(C)O1 (stereo not given)
 : 9%	-1	4	7	27%	-1.6
> CC(C)NC(=O)N(C)C[C@H]1Oc2c(NS(=O)(=O)c3cn(C)cn3)cccc2C(=O)N([C@H](C)CO)C[C@@H]1C
 : 8%	-2	2	3	·	0.5
> COc1ccc(OC)c(NC(=O)c2nc(-c3ccccc3)oc2C)c1
 : -8%	-2	0	·	4%	-1.1
> CC1CCN(C(=O)Cn2c(SCC(=O)Nc3nccs3)nc3ccccc32)CC1
 : -13%	0	-5	7	-8%	-0.5
> CCOc1ccc(/C(C)=N/NC(=O)C(OC)c2ccccc2)cc1 (stereo not given)
 : 2%	-6	7	-13	17%[15.4 µM]	-1.6
> Cc1cc(C(=S)N2CCOCC2)c(C)n1-c1ccc(F)cc1
 : 6%	-4	4	1	?	-4.3
> CCc1cc[n+](-c2nc([O-])sc2C=O)cc1
 : 3%	24	-5	0	0%	5.9
> Cc1ccc(C(=O)Nc2nc(=O)n(C)s2)cc1
 : 22µM*	3	9	-2	-22%	5.0
> CC1CCCCN1C(=O)CCC(=O)Nc1nnc(C2CCCCC2)s1 (stereo not given)
 : 1%	-15	3	3	3%	-4.8
> CCc1nnc(NS(=O)(=O)c2ccc(NC(=O)c3ccc(Cl)cc3)cc2)s1
 : -14%	-7	-1	1	10%	3.0
> CCCc1cc(=O)[nH]c(SCC(=O)N(C)CC(=O)Nc2ccc(C)cc2)n1
 : 3%	-5	-13	-10	-31%[inhibitor]	-3.1
> Cc1ccc(NC(=O)CN2C(=O)/C(=C3\SC(=S)N(C4CCS(=O)(=O)C4)C3=O)c3ccccc32)cc1 (stereo not given)
 : 1%	-1	1	5	-35%[inhibitor]	-4.4
> COc1ccccc1NS(=O)(=O)c1ccc2oc(SCc3ccc(F)cc3)nc2c1
 : 3%	?	6	7	28%	3.5
> Cn1c(CNC(=O)c2ccc3c(c2)OCO3)nnc1SCC(=O)Nc1ccc(F)cc1F
 : -4%	-3	4	-3	-45%[inhibitor]	0.4
> N#Cc1c(N)oc(-c2ccco2)c1-c1ccco1
 : -8%	9	0	-16	11%	-3.8
> COC(=O)c1cc2c(-c3ccccc3)c(C)c3ccccn3c-2c1C(=O)OC
 : 6%	-19	-69*	?	?	-5.6
> Cc1c(C(=O)N/N=C/c2ccc(N(C)C)cc2)[nH]c2ccc(Cl)cc12
 : 12%	12	3	3	15%	-1.6
> CC(=O)N(C)c1ccc(NC(=O)Nc2ccc(Cl)cc2)cc1
 : -6%	-1	4	10	-63%[inhibitor]	6.7
> CCOc1ccc(NC(=S)Nc2cc(-c3ccccc3)[nH]n2)cc1
 : -8%	20	?	?	-18%	2.4
> Cc1ccccc1NC(=O)NC1(C(=O)N2CCCC2)CCCCC1
 : -26%	-17	0	0	0%[15.4 µM]	-6.0
> Cc1cc(C)c(OCC(=O)OC(C)C(=O)N2CCc3ccccc32)c(C)c1 (stereo not given)
 : -7%	-10	3	-5	6%[15.4 µM]	4.1
> O=C(Nc1ccc(OCCO)cc1)c1csc([C@H]2C[C@H](O)[C@@H](CO)O2)n1
 : ·	0	1	2	·	2.3
> O=C(c1cc([N+](=O)[O-])ccc1Cl)N1CCc2ccccc21
 : 3%	4	-17	-1	-13%[15.4 µM]	4.6
> O=c1[nH]c2ccsc2c(=O)n1CCO
 : 5%	-4	-3	-12	-52%[inhibitor]	-2.5
> Cc1ccccc1-n1ncc(C(C)NC(=O)c2ccco2)c1C (stereo not given)
 : 9%	-1	16	22	0%	-2.6
> Cc1nn(CC(=O)c2cccc(Cl)c2)c(C)c1[N+](=O)[O-]
 : 7%	2	-10	-9	-13%[15.4 µM]	0.8
> COc1ccc(C(=O)N2CCN(c3ncccn3)CC2)cc1S(=O)(=O)N1CCOCC1
 : 6%	0	3	2	18%	2.9
> CCC(CC)C(=O)Nc1ccc(Nc2ccccc2)cc1
 : 1%	-1	-5	-11	6%	-0.1
> Cc1nnc(NC(=O)c2ccc3ccccc3n2)s1
 : -6%	-6	-13	-17	-5%	-2.8
> Cc1cccc(N2C(=O)SC(N(C)c3ccccc3)C2=O)c1 (stereo not given)
 : -3%	-4	8	-3	10%	-1.3
> C/C(=N/NC(=O)c1cccs1)c1ccc(NC(=O)COc2ccc(Cl)cc2)cc1
 : 4%	3	2	6	20%	-1.1
> COc1ccc(Cl)cc1Nc1nc(C)cc(C)c1C(N)=O
 : 3%	12	11	0	-30%	-2.0
> CCOC(=O)CCCCCC(=O)Nc1ccc2c(c1)CC(=O)N([C@@H](C)CO)C[C@@H](C)[C@@H](CN(C)C(=O)Nc1ccc(C(F)(F)F)cc1)O2
 : -6%	-13	1	2	-6%	-3.7
> NC1CCN(c2c(F)cc3c(=O)c(C(=O)O)cn(C4CC4)c3c2Cl)C1 (stereo not given)
 : 7%	-8	2	0	25%	-3.9
> CC(NC(=O)CN1C(=O)NC2(CCCCC2C)C1=O)c1ccccc1 (stereo not given)
 : 1%	-2	2	-7	-7%	-1.2
> Cc1ccc(Nc2cc(C)nc3nnnn23)cc1
 : -5%	-14	0	-4	-8%	-3.8
> Cc1c(Nc2cc(=O)oc3ccccc23)c(=O)n(-c2ccccc2)n1C
 : 10%	-6	2	-8	1%	-1.0
> Cc1ccc(NC(=O)c2ccccc2OCc2ccc([N+](=O)[O-])cc2)nc1
 : -12%	5	0	2	10%[15.4 µM]	-1.4
> N#Cc1cccc(NC(=O)CN2CCCCCC2)c1
 : 11%	-22	10	0	12%[15.4 µM]	-4.5
> CCCCCCn1c(SCC(=O)c2ccccc2)nc2c1c(=O)[nH]c(=O)n2C
 : 5%	-4	-3	7	-19%	-4.6
> COc1ccc(S(=O)(=O)NC(C)C(=O)Nc2ccccc2)cc1Cl (stereo not given)
 : -5%	-28	23	0	-73%[inhibitor]	-2.3
> COCCCN1C(=O)C(=O)/C(=C(/O)c2ccc(OCC(C)C)cc2C)C1c1cccnc1 (stereo not given)
 : 16%	0	2	10	?	-1.0
> CC(C)(CNC(=O)c1ccc(-c2ccccc2Cl)o1)N1CCOCC1
 : 1%	-20	-14	-2	6%[15.4 µM]	-4.3
> CCOCCCNC(=O)C1CCN(S(=O)(=O)c2cc(Br)cc3c2N(C(=O)CC)CC3)CC1
 : -10%	-3	-11	-7	-13%	-2.7
> CN(CC(=O)Nc1cc(S(=O)(=O)N2CCOCC2)ccc1Cl)C1CCS(=O)(=O)C1 (stereo not given)
 : ·	-11	54	9	-4%[15.4 µM]	-4.1
> CN1C(=O)C2(c3ccccc31)c1c(oc3ccccc3c1=O)C(=O)N2CCO (stereo not given)
 : -3%	-2	-1	6	3%	-2.7
> COCOCCn1cc(CN2CCS(=O)(=O)N(Cc3ccc(-c4ccc(OC)cc4)cc3)C(CC(C)C)C2=O)nn1 (stereo not given)
 : ·	-14	2	-1	-115%[inhibitor]	2.6
> COCc1cc(=O)[nH]c(Cc2c(Cl)cccc2Cl)n1
 : 16%	-6	1	3	27%	-6.6
> O=c1c2sccc2n(Cc2cc(=O)n3ccccc3n2)c(=O)n1-c1ccccc1
 : 7%	-13	0	7	-9%	-1.7
> Cc1ccc(C(C(=O)NC2CCCC2)N(C(=O)Cc2cccs2)c2ccc(C)c(C)c2)o1 (stereo not given)
 : -6%	17	-9	-1	-28%	-2.4
> N#Cc1nc(-c2ccccc2F)oc1NCc1cccc2c1OCO2
 : 14%	-14	-16	4	11%	-1.5
> Cc1ccc(C)c(NC(=O)NNS(=O)(=O)c2ccc(C)c(C)c2)c1
 : 3%	-20	0	-6	?	-3.3
> Cc1ccc(S(=O)(=O)c2cc3ccccc3nc2N)cc1
 : 17%	0	11	-3	-4%[15.4 µM]	-2.1
> O=S(=O)(Nc1cccc(S(=O)(=O)N2CCOCC2)c1)c1ccc2c(c1)OCCO2
 : -7%	2	10	0	6%[15.4 µM]	-3.7
> CCC(C)(C)NC(=O)CN(Cc1cccs1)C(=O)C(=O)Nc1ccc2c(c1)OCCO2
 : 0%	-12	17	93	-42%[inhibitor]	-4.4
> CCc1ccc(NC(=O)[C@H](C)NC(=O)C2CCN(C(=O)[C@@H](NC(=O)OC(C)(C)C)C(C)C)CC2)cc1
 : 4%	-10	18	·	10%	0.5

Next part.
Every second line gives: gsp antagonist	D2 PAM	Six1-Eya2 inh	CtBP-E1A inh	gsp ag	D2 ag
> COc1ccc(CC(=O)NCC2(N3CCCCC3)CCCCC2)cc1
 : 8%	-3	4	-14	9%	-7.4
> N#Cc1ccc(C(=O)NC2=NCCS2)cc1
 : 7%	-3	6	·	?	-3.4
> COc1ccccc1-n1c(C)nnc1SCC(=O)Nc1cccc(C(C)=O)c1
 : -1%	-6	2	3	12%	-0.7
> COc1ccccc1C(=O)NNC(=O)c1cccc(C)c1
 : 9%	-4	8	15	0%[15.4 µM]	-7.3
> COc1cccc(NC(=O)CCC(=O)Nc2ccc3nc(N4CCOCC4)cc(C)c3c2)c1
 : -26%	-8	?	-21	3%[15.4 µM]	1.6
> N#Cc1cc2c(nc1SCC(=O)NCc1ccc3c(c1)OCO3)CCCCC2
 : 11%	-7	-2	7	0%	-2.0
> CCOc1ccc(-c2cc(CCCC(=O)NCc3cccnc3)no2)cc1
 : -11%	-4	0	3	24%	-1.6
> C[C@@H](NC(=O)c1nc[nH]c1C(=O)NCC(=O)OC(C)(C)C)c1ccccc1
 : 4%	9	0	0	·	0.4
> Cc1ccc2cc(CN(C(=O)c3ccco3)c3ccccc3)c(=O)[nH]c2c1
 : 11%	-30	-18	-13	1%	-3.6
> O=C(O)c1ccc(COc2ccc3c(c2)CCC3)cc1
 : -3%	-3	16	5	17%[15.4 µM]	-1.7
> Cn1cnc2cc(NS(=O)(=O)c3ccc(Br)cc3)ccc21
 : 0%	-18	-4	5	5%	1.0

Ordered by the number under Six1-Eya2 inh (ascending): 3 of the compounds above.
molecule,Six1-Eya2 inh
Cc1ccc2cc(CN(C(=O)c3ccco3)c3ccccc3)c(=O)[nH]c2c1,-18
C[C@@H](NC(=O)c1nc[nH]c1C(=O)NCC(=O)OC(C)(C)C)c1ccccc1,0
COc1ccc(CC(=O)NCC2(N3CCCCC3)CCCCC2)cc1,4
